Screens from PubChem BioAssay.
RE007 growth inh – less growth of the S. pombe RE007 Vpr strain | S. pombe RE007 Vpr strain, BacTiter-Glo ATP luminescence, 24 h; control for the full effect not named in the record | Potency, µM (highest dose often 92.2 µM), for the others: top-dose activity change, negative = less growth | hit rate 0.21% among 360,000 | AID 651644; active = well fitted falling curve with a large enough effect; inconclusive = small, poorly fitted or top-dose-only effect; inactive = no such curve, though single readings can be large or run the other way;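 also: % is scaled to controls: 0 for no effect and ±100 for the full control effect; nearly all actives have a fitted effect of over 50% in size; the assay follows cell death caused by Vpr and the record does not say whether a fall means rescue or toxicity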
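Fission yeast strain RE007, carrying one chromosomally integrated HIV-1 vpr copy, was seeded at OD 0.01 in PMG+AL medium with 23 nL pinned compound. After 24 h at 30 °C and 99% humidity, viability was read by BacTiter-Glo luminescence.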
MARV entry inh – Marburg virus entry inhibition | Marburg virus pseudotyped entry inhibition, cell reporter; control for the full effect not named in the record; about a third of the inactives were read at about 46 µM | Potency, µM (series often up to 37.8 µM), for inactives: top-dose activity change, negative = inhibition, actives largely listed as inhibitors | hit rate 1.8% among 300,000; active = well fitted inhibition curve with a large enough effect; inconclusive = small, poorly fitted or top-dose-only effect, or effect the other way; inactive = flat fitted curve, though single readings scatter; tested in HEK293 cells; about a fifth of its hits are not listed in these tables; also: % is scaled to controls: 0 for no effect and ±100 for the full control effect; luciferase read-out
SARS PLpro yeast – blocks SARS-CoV papain-like protease in a yeast assay; Potency, µM (highest dose often 32.9 µM), for inactives: at the top dose activity, positive = growth rescue; S. cerevisiae expressing SARS-CoV PLpro, growth rescue; control for the full effect not named in the record; hit rate 0.19% among 330,000; also: 0% is about no effect; nearly all actives have a fitted effect of over 55% in size; growth read by luminescence after 48 h
StopGo reporter – lowers the luciferase signal of an FMDV 2A StopGo reporter | hit rate 1.2% among 410,000 | human cells with a luciferase reporter of 2A StopGo recoding; control for the full effect not named in the record | Potency, µM (series often up to 57.9 µM), inactives show at the top dose signal change, negative = less light; active = well fitted falling curve with a large enough effect; inconclusive = small, poorly fitted or top-dose-only effect; inactive = no such curve, though single readings can be large or run the other way; tested in HEK293T cells; also: % is scaled to controls: 0 for no effect and ±100 for the full control effect; nearly all actives have a fitted effect of over 45% in size; luciferase light after 4 h
Cruzain inh noDet – blocks cruzain activity in detergent-free assay | P25779 | purified cruzain, Z-FR-AMC fluorescence, no detergent | Potency, µM, inactives show max response, negative = inhibition, actives largely listed as inhibitors | hit rate 2.3% among 200,000; active = well fitted curve in the direction sought with a large enough effect; inconclusive = small, poorly fitted or top-dose-only effect, or another doubt; inactive = no such curve, though single readings can be large; an effect the other way counts as inactive or inconclusive;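 also: plate controls were enzyme without inhibitor for no effect and buffer without enzyme for full effect; nearly all actives have a fitted effect of over 40% in size; top concentration of the series not given in the record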
Target sequence (P25779 123-467 limits assumed): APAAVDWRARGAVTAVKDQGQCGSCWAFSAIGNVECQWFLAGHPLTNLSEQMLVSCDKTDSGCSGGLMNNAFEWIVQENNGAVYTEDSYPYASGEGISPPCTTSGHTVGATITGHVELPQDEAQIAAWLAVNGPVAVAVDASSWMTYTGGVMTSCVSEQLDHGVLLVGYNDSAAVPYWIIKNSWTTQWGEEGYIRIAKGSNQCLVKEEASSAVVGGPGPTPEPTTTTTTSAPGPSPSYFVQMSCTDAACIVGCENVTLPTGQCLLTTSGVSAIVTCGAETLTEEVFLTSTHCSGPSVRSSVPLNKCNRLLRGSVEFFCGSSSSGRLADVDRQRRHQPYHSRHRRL
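Purified cruzain at 1.5 nM, pre-incubated 15 min with compound at room temperature in 100 mM sodium acetate pH 5.5, 5 mM DTT, 0.00005% Triton X-100. Reaction started with 2 uM Z-FR-AMC; AMC fluorescence increase over 60 s gives rate.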
Cruzain Triton – cruzain (T. cruzi) inhibition with detergent; purified cruzain, Z-FR-AMC fluorescence, 0.01% Triton; Potency, µM, for inactives: max response, negative = inhibition, usual class: inhibitors; hit rate 0.43% among 200,000; active = well fitted curve in the direction sought with a large enough effect; inconclusive = small, poorly fitted or top-dose-only effect, or another doubt; inactive = no such curve, though single readings can be large; an effect the other way counts as inactive or inconclusive;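 also: plate controls were neutral wells for no effect and buffer without enzyme for full effect; nearly all actives have a fitted effect of over 40% in size; top concentration of the series not given in the record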
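Detergent-containing arm of a paired screen for aggregation-based inhibition: 0.01% Triton X-100 present. Cruzain at 1.5 nM cleaved 2 uM Z-FR-AMC at pH 5.5 with 5 mM DTT; AMC fluorescence gain over 60 s measured activity.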
NS1 function inh – influenza NS1 inhibition | S. cerevisiae slowed by influenza A NS1, growth recovery by OD600 | Potency, µM (highest dose often 46.1 µM), inactives show top-dose activity, positive = more growth | hit rate 0.4% among 270,000; also: actives are rising curves; nearly all actives have a fitted effect of over 50% in size
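In this qHTS, NS1 from influenza A is expressed in budding yeast, where it slows growth. Cells are switched from glucose to 2% galactose medium (pH 6.0, -URA), treated with compound, and growth recovery is read at OD600.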
LASV entry inh – blocks Lassa virus binding to or entry into cells. Lassa virus pseudotype entry inhibition, cell reporter; control for the full effect not named in the record. hit rate 1.2% among 300,000. Potency, µM (titrated, usually from 37.9 µM), without a hit: top-dose activity change, negative = inhibition, usual class: inhibitors; active means well fitted inhibition curve with a large enough effect; inconclusive means small, poorly fitted or top-dose-only effect, or effect the other way; inactive means flat fitted curve, though single readings scatter; tested in HEK293 cells; also: % is scaled to controls: 0 for no effect and ±100 for the full control effect; nearly all actives have a fitted effect of over 50% in size; luciferase read-out
Active calls of the source: *; ? = inconclusive; nt = not tested or not shown; [ ] = another dose, or the depositor's remark. Unless noted, calls follow the shape of the dose curve; as a rule, active means well fitted rising curve with a large enough effect; inconclusive means small, poorly fitted or top-dose-only effect; inactive means no such curve, though single readings can be large or run the other way. Potency is read from the fitted curve at half-maximal effect.

Structure	RE007 growth inh	MARV entry inh	SARS PLpro yeast	StopGo reporter	Cruzain inh noDet	Cruzain Triton	NS1 function inh	LASV entry inh
Cc1ccc(C)c(NC(=O)Cn2cc(C(=O)C3CC3)c3ccccc32)c1	10%	9%[46.1 µM]	3%	-12%	nt	nt	-22%	4%[46.1 µM]
Cc1ccccc1NCC(=O)N/N=C\c1ccc2c(c1)OCO2	-5%	-16%[46.1 µM]	-1%	20%	nt	nt	-7%	-2%[46.1 µM]
Cc1ccc(-n2nnnc2SCC(=O)Nc2ncc(Cc3ccccc3Cl)s2)cc1	-1%	4%	-10%	11%	?	1.4%	11%	-2%
COc1ccc(NC(=O)NCc2cccnc2)c(OC)c1	4%	nt	-4%	-16%	nt	nt	0%	nt
COc1ccc(NC(=O)C(=O)NCCc2csc3nc(-c4ccccc4F)nn23)cc1OC	nt	nt	nt	-8%	24%	-0.8%	nt	-6%[46.1 µM]
COc1ccc(C2OCC3(CO2)SC(=O)NC3=O)cc1OC (configuration not stated)	7%	11%[46.1 µM]	0%	-6%	nt	nt	nt	-14%
COc1ccc(CNC(=O)C(c2ccc(C)o2)N(C(=O)c2snc(C(N)=O)c2N)c2ccccc2OC)cc1 (configuration not stated)	-11%	?	1%	20%	nt	nt	-11%	?
N=c1n(CCN2CCCCC2)c2ccccc2n1CC(=O)c1cccs1	-22%	?	-1%	1%	nt	nt	3%	?
CCc1nnc(NC(=O)c2cccc(OC)c2)s1	-1%	?	-9%	-14%	-3%	0.8%	-11%	?
Cc1ccc(C(C)C)c(OCC(=O)N2CCN(CCc3ccncc3)CC2)c1	nt	1%[46.1 µM]	nt	-25%	0%	-0.8%	nt	-18%[46.1 µM]
Cc1ccc(Cl)cc1NC(=O)c1oc2ccc(S(=O)(=O)N3CCCCC3)cc2c1C	nt	nt	nt	-10%	7%	0.5%	nt	-1%[46.1 µM]
Cn1c(CNC(=O)c2ccco2)nnc1SCC(=O)Nc1ccc(Br)cc1F	-19%	-21%	10%	-12%	-5%	-4.5%	-7%	5%
COc1ccc(N2CCN(S(=O)(=O)c3ccc(C(=O)NCc4ccco4)cc3)CC2)cc1	-15%	-29%	3%	nt	10%	1.1%	-4%	-2%
Cc1ccc(S(=O)(=O)N2CCN(C(=O)COC(=O)c3c(C)cc(C)cc3C)CC2)c(C)c1	8%	?	-12%	-26%	nt	nt	nt	-8%[46.1 µM]
CCC(C)NC(=O)CN(c1ccc(OC)cc1)S(=O)(=O)c1ccc(NC(C)=O)cc1 (configuration not stated)	1%	-8%	5%	9%	9%	-9.3%	14%	-22%
COc1cc(C2C(C#N)=C(N)Oc3cc(C)n(CCc4ccccc4)c(=O)c32)cc2c1OCO2 (configuration not stated)	-1%	-22%	-1%	12%	-9%	2.6%	3%	-13%
CCCCSc1nnc(-c2ccc(NC(=O)CCc3ccccc3)cc2)n1C	4%	-4%	8%	-10%	?	-2.4%	5%	-15%
CNC(=S)N1N=C(c2ccccc2)CC1c1ccc(OC)c(OC)c1 (configuration not stated)	4%	0%	-19%	-14%	6%	-7.4%	3%	-12%
CCOc1ccc(NC(=O)c2cccc3c2C(=O)N(CC2CCCO2)C3)cc1 (configuration not stated)	-7%	nt	-10%	4%	nt	nt	-2%	nt
COc1cc2c(cc1OC)C(C(=O)NCc1ccco1)C1c3ccccc3CCN1C2=O (configuration not stated)	-3%	-9%	3%	-17%	-5%	4.1%	-1%	-27%

Next compounds:
Structure	RE007 growth inh	MARV entry inh	SARS PLpro yeast	StopGo reporter	Cruzain inh noDet	Cruzain Triton	NS1 function inh	LASV entry inh
CC(=O)c1c(C(C)=O)c(C)n(Cc2ccccc2)c1C	5%	-12%	0%	-27%	0%	2.2%	-7%	-28%
CCN(CC)CCCNS(=O)(=O)c1ccc(OC)cc1	14%	-11%	-3%	44%[activator]	-3%	0.8%	-4%[9.22 µM]	-7%
CCOC(=O)N1CCN(c2ncc(C(F)(F)F)cc2Cl)CC1	3%	-25%[46.1 µM]	-3%	0%	nt	nt	-2%	-10%
COc1ccccc1Nc1nc(N)nc(N)c1S(=O)(=O)c1ccccc1	nt	?	nt	-13%	?	-9.5%	nt	2%[46.1 µM]
COCCN(Cc1cc2cc(C)ccc2[nH]c1=O)S(=O)(=O)c1ccc(Cl)cc1	-6%	nt	7%	-15%	nt	nt	9%	nt
Cc1ccc(CSc2nnc(CCNC(=O)OC(C)(C)C)o2)cc1	2%	?	-2%	?	-5%	-0.4%	0%	?
CCCCOP(=O)(c1ccc(N(C)C)cc1)C(O)c1ccncc1 (configuration not stated)	8%	11%	3%	17%	11%	1.0%	-1%	17%
CN(C)C(=O)C(Sc1ccc(S(=O)(=O)N2CCCC2)cn1)c1ccccc1 (configuration not stated)	11%	?	0%	0%	nt	nt	nt	-19%
CC(=O)Nc1ccc(N2C(=O)CC(Sc3nc(C)cc(C)n3)C2=O)cc1 (configuration not stated)	14%	0%	1%	2%	nt	nt	4%	14%
N#CC1=C(N)Oc2n[nH]c(-c3ccncc3)c2C1c1ccsc1 (configuration not stated)	-5%	-2%	2%	-27%	-4%	-5.7%	7%	-22%
COc1ccc(CN2CCN(C(=O)CC(C)C)CC2)cc1OC	-6%	2%	9%	-1%	-3%	8.5%	10%	2%
CC(=O)Nc1ccccc1OC(=O)N(C)C	4%	-2%	10%	22%	-1%	-1.6%	-4%	18%
O=C(NCc1ccccc1)c1ccc(NC2=NC3CS(=O)(=O)CC3S2)cc1 (configuration not stated)	-20%	18%[46.1 µM]	0%	32%[activator]	nt	nt	12%	4%
Cc1cc(Nc2nc3ccccc3nc2Cl)n(-c2ccc([N+](=O)[O-])cc2)n1	9%	?	1%	nt	-2%	-5.0%	-10%	?
O=S(=O)(NCC(c1ccco1)N1CCN(c2ccc(F)cc2)CC1)c1ccccc1 (configuration not stated)	nt	nt	nt	-25%	-6%	-3.7%	nt	?
C=CCSc1nnc(NC(=O)c2ccc(Cl)nc2)s1	4%	1%[46.1 µM]	-1%	44%[activator]	-20%	1.1%	-102%	14%
CCC(=O)N1CCc2cc(Br)cc(S(=O)(=O)CCC(=O)NCc3ccc(Cl)cc3)c21	nt	-9%[46.1 µM]	nt	-4%	?	-2.2%	nt	?
CCc1cc(C(=O)OCC(=O)N2CCC(c3ccccc3)=N2)sc1C	5%	nt	-7%	-12%	nt	nt	5%	nt
O=c1c(Cl)c(N/N=C/c2ccc(Br)cc2)cnn1-c1ccccc1	?	?	-15%	23%	?	-5.0%	?	?
Cn1c(=O)n(C)c2cc(/C=C3/SC(=O)N(CC(=O)N4CCOCC4)C3=O)ccc21	-8%	9%	17%	14%	5%	-5.2%	1%	-2%

The list goes on, overlapping the part above by 4 compounds.
Structure	RE007 growth inh	MARV entry inh	SARS PLpro yeast	StopGo reporter	Cruzain inh noDet	Cruzain Triton	NS1 function inh	LASV entry inh
CCC(=O)N1CCc2cc(Br)cc(S(=O)(=O)CCC(=O)NCc3ccc(Cl)cc3)c21	nt	-9%[46.1 µM]	nt	-4%	?	-2.2%	nt	?
CCc1cc(C(=O)OCC(=O)N2CCC(c3ccccc3)=N2)sc1C	5%	nt	-7%	-12%	nt	nt	5%	nt
O=c1c(Cl)c(N/N=C/c2ccc(Br)cc2)cnn1-c1ccccc1	?	?	-15%	23%	?	-5.0%	?	?
Cn1c(=O)n(C)c2cc(/C=C3/SC(=O)N(CC(=O)N4CCOCC4)C3=O)ccc21	-8%	9%	17%	14%	5%	-5.2%	1%	-2%
CCc1n[n+](CC(=O)c2ccccc2)c(N)s1	?	?	-8%	-52%	nt	nt	nt	7.9µM*
CC(C)Cc1nc2sc3c(=O)[nH]cnc3c2c2c1CCCC2	3%	8%	0%	-11%	nt	nt	2%	0%[46.1 µM]
Cc1oc2ncn(C)c(=O)c2c1C(=O)N1CCN(c2cccc(C(F)(F)F)c2)CC1	nt	nt	nt	-1%	24%	-2.1%	nt	3%[46.1 µM]
Cc1cc2oc(=O)c(CC(=O)O)c(C)c2c2occ(-c3ccc(F)cc3)c12	nt	?	nt	20%	?	-25%	nt	20%[46.1 µM]
CCOC(=O)c1ccc(NC(=O)Nn2cnnc2)cc1	12%	nt	2%	-3%	nt	nt	-8%	nt
O=C(c1cc(=O)c2ccccc2o1)N1CCN(c2cccc(Cl)c2)CC1	-5%	2%[46.1 µM]	-6%	-9%	nt	nt	nt	-8%
CC(=O)NC1(C(F)(F)F)C(=O)N(Cc2ccccc2)C2=C1C(=O)CC(C)(C)C2 (configuration not stated)	15%[3.69 µM]	-17%	3%	4%	6%	-1.2%	19%	-1%
CCCCCN1C(=O)Cn2c(nc3ccccc3c2=O)C1C (configuration not stated)	-14%	nt	-1%	-7%	nt	nt	2%	nt
Cc1ccc(CNC(=O)C2CC(c3cccc([N+](=O)[O-])c3)=NO2)cc1 (configuration not stated)	6%	nt	1%	5%	-5%	0.8%	-7%	nt
COc1ccccc1C(=O)n1nc(-c2ccco2)nc1SC	10%	?	-6%	-11%	nt	nt	nt	-19%[46.1 µM]
COc1ccc(/C=N/NC(=O)OC(C)(C)C)cc1OC	6%	14%	16%	22%	5%	-2.7%	-1%	0%
CCOc1ccc(CCNC(=O)c2sc3nc4n(c(=O)c3c2C)CCC4)cc1OCC	-8%	-11%	-2%	-13%	nt	nt	2%	-3%
Cc1ccc(NC2=NCCCCC2)cc1	10%	-2%	2%	-7%	-2%	7.8%	3%	12%
